Resorufin fluor: compounds fluorescent in resorufin spectral region. Compound fluorescence, resorufin region 547/598 nm, buffer; hits give high values. 0.04% of 59,000 active. max dye-equivalent concentration, M; active = above 10 nM dye equivalent; inconclusive = 1 to 10 nM; inactive = 1 nM or less; a few of its hits are not listed in these tables; also: highest value over a series up to 38 µM
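Compounds in 100 mM Tris buffer, pH 8.0, incubated 15 min at room temperature, then read with 547 nm excitation and 598 nm emission filters. Fluorescence was converted to dye-equivalent concentration using an on-plate six-point resorufin standard curve.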
A488 fluor: A488 region autofluorescence. compound autofluorescence, A488 spectral region, dye equivalency; hits give high values. max dye equivalency, M. 0.1% of 59,000 active. AID 591; active = above 10 nM dye equivalent; inconclusive = 1 to 10 nM; inactive = 1 nM or less; about half of its hits are not listed in these tables;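 also: highest value over a series up to 38 µM; compound alone in buffer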
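Intrinsic compound fluorescence is measured in 100 mM Tris buffer at pH 8.0 following 15 min incubation at room temperature. Intensities at 480 nm excitation/540 nm emission are calibrated to an on-plate A488 concentration series, giving dye-equivalent concentrations.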
AID923: qHTS Assay for Allosteric/Competitive Inhibitors of Caspase-1: Spectroscopic Profiling in AFC Spectral Region | compound fluorescence, AFC spectral region (405/520 nm); almost no hit is shown here | Potency, µM (top dose mostly 57.5 µM), for inactives: at the top dose fluorescence increase, hits mostly activators | 1.1% of 75,000 active; active = well fitted activation curve with a large enough effect; inconclusive = small, poorly fitted or top-dose-only effect;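 also: potency is read from the fitted curve at half-maximal effect; 0% is about no effect; scaled to a free AFC standard on each plate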
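Compound autofluorescence profiled at 405 nm ex/520 nm em during kinetic caspase 1 run (50 nM enzyme, 5 uM Ac-WEHD-AFC, HEPES pH 7.5, 10 mM DTT). Titration up to 57 uM; baseline from regression intercept, normalized to AFC standard curve.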
A647 fluor: A647 region autofluorescence; Compound fluorescence, A647 channel (570/671 nm), Tris buffer; max dye-equivalent concentration, M; 59,000 tested, under 10 active; AID 592; active means above 1 µM dye equivalent; inconclusive means 0.1 to 1 µM; inactive means 0.1 µM or less;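 also: values scaled relative to a standard on each plate; highest value over a series up to 38 µM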
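Fluorescence read (570 nm ex, 671 nm em) after 15 min RT incubation of compounds in 100 mM Tris buffer, pH 8.0; values expressed as dye-equivalent concentration against a six-point A647 standard series on each plate.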
TSHR agonist: activates the human thyroid stimulating hormone receptor. P16473. HEK293-CNG-TSHR cells (CNG channel as cAMP sensor), membrane potential dye, cAMP. Potency, µM (doses to about 57.1 µM), inactives show at the top dose activation, most hits filed as activators. 0.48% of 73,000 active. AID 926; active = well fitted activation curve of enough size with the parental cells flat; inconclusive = any curve in the parental cells; inactive = parental cells flat and receptor cells flat or falling; also: potency is read from the fitted curve at half-maximal effect; % of control where 0% means no effect; weak receptor curves with flat parental cells got no call and are not listed
Target sequence (P16473 whole entry, looked up): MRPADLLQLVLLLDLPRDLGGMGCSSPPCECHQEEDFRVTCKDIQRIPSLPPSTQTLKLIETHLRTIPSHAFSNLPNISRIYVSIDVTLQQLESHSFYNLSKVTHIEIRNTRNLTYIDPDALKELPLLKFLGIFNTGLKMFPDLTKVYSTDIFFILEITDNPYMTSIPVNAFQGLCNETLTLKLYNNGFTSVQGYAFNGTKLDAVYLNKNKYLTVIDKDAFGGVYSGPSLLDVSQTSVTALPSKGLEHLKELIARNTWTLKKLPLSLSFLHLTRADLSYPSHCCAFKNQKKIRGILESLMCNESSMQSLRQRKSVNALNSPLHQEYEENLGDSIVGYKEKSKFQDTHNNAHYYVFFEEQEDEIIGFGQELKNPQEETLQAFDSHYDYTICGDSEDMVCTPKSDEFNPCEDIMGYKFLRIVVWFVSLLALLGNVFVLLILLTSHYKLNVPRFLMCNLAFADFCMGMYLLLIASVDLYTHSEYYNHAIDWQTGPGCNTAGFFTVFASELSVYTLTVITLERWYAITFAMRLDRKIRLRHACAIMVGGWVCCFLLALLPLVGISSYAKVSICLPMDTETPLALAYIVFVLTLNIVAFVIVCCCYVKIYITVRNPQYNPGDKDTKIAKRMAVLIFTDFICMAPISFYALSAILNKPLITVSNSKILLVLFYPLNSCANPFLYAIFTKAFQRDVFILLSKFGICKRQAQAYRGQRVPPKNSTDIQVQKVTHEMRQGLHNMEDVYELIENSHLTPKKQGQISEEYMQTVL
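cAMP rise detected as CNG-channel membrane depolarization by fluorescent dye (emission 590 nm), 30 min after compound, following 60 min dye loading containing 100 uM RO 20-1724 at room temperature. Cells: TSHR/CNG HEK 293, with parental CNG HEK 293 as control.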
Starred values were filed as active, the others as inactive; & = joins results of further samples; [ ] = remark or other dose. The list is partial; the hit share may differ from the screen's.

CCC(=O)NCCc1cc2cc(C)c(C)cc2[nH]c1=O was read as Resorufin fluor inactive, A488 fluor inactive, AID923 -0.3% and A647 fluor 1.9e-09.
Screening Cc1n[nH]c(=O)nc1NCc1ccccc1Cl returned Resorufin fluor inactive, A488 fluor inactive, AID923 1.6%, A647 fluor 4.9e-08 and TSHR agonist -1%.
Screening CCCc1cc(-c2[nH]ncc2-c2ccc3c(c2)OCCCO3)c(O)cc1O returned Resorufin fluor inactive, A488 fluor inactive, AID923 -0.3%, A647 fluor 2.6e-09 and TSHR agonist 11%[11.4 µM].
For Oc1cccc(Nc2nc(NCC3CCCO3)c3ccccc3n2)c1 (configuration not stated) the results were Resorufin fluor inactive, A488 fluor inactive, AID923 2.5%, A647 fluor 2.5e-08 and TSHR agonist inconclusive.
O=C(COC(=O)c1cc(-c2ccco2)nc2ccccc12)NCc1ccc2c(c1)OCO2 was read as Resorufin fluor inactive, A488 fluor inactive, AID923 19%, A647 fluor 1e-09 and TSHR agonist inconclusive.
Screening Cc1ccccc1N1C(=O)C2ON(c3ccccc3)C(c3cccnc3)C2C1=O (configuration not stated) returned Resorufin fluor inactive, A488 fluor inactive and A647 fluor 1e-09.
Screening CCOC(=O)CC(=O)Nc1nnc(C(C)C)s1 returned Resorufin fluor inactive, A488 fluor inactive, AID923 0.8%, A647 fluor 4.4e-09 and TSHR agonist 5%.
For CCC(c1nnc(SCC(=O)NCCc2ccc(Cl)cc2Cl)o1)N(C)C (configuration not stated) the results were Resorufin fluor inactive, A488 fluor inactive, AID923 1.4%, A647 fluor 2.5e-09 and TSHR agonist 1%.
For COc1cc2[nH]c(=O)n(CCC(=O)N3CCN(c4cccc(C)c4C)CC3)c(=O)c2cc1OC the results were Resorufin fluor inactive, A488 fluor inactive, AID923 0.7%, A647 fluor 3.9e-09 and TSHR agonist 9%.
CC(C)C(=O)N1CCC(CN=Cc2c(O)n(C3CCCCC3)c(=O)n(C3CCCCC3)c2=O)CC1 was read as AID923 -0.2% and TSHR agonist 6%.
O=C(NC1CCCCC1NC(=O)c1cccs1)c1cccs1 (configuration not stated) was read as Resorufin fluor inactive, A488 fluor inactive, AID923 -2.7% and A647 fluor 4.6e-08.
For CCCCn1c2nc3ccccc3nc2c2c(=O)n(CCC)cnc21 the results were Resorufin fluor inactive, A488 fluor inactive, AID923 -1.3%, A647 fluor 6.5e-09 and TSHR agonist inconclusive.
For CCOC(=O)c1ccccc1NC(=O)CN1CCC(n2nnc3cc(F)ccc32)CC1 the results were Resorufin fluor inactive, A488 fluor inactive, AID923 2.4%, A647 fluor 1.2e-08 and TSHR agonist inconclusive.
`Nn1c(SCc2nc3ccccc3[nH]2)nnc1-c1cccnc1` gave AID923 -0.1% and TSHR agonist -5%.
`CCN(CC)CCN1C(=O)C(=O)/C(=C(/O)c2c(C)[nH]c(C(=O)OC)c2C)C1c1ccco1` (configuration not stated) gave Resorufin fluor inactive, A488 fluor inactive and A647 fluor 3.1e-08.
For O=C(Oc1ccccc1)N1CCC[C@@]2(CCN(c3ccncc3)C2)C1 the results were Resorufin fluor inactive, A488 fluor inactive, AID923 -0.3%, A647 fluor 1.2e-09 and TSHR agonist inconclusive.
Screening CN(C)Cc1ccccc1-c1cncnc1Nc1ccncc1 returned Resorufin fluor inactive, A488 fluor inactive, AID923 1.6%, A647 fluor 1e-09 and TSHR agonist 9%.
For CCSCc1nnc(SCC(=O)Nc2cccc(SC)c2)n1C the results were Resorufin fluor inactive, A488 fluor inactive, AID923 0.0%, A647 fluor 3.9e-08 and TSHR agonist 7%.
Screening Cc1nc(-c2ccccc2)nc2[nH]c(C(C)C)cc(=O)c12 returned Resorufin fluor inactive, A488 fluor inactive, AID923 -0.4% and A647 fluor 1e-09.
`Cc1onc(-c2ccccc2)c1C(=O)n1nnc2ccccc21` gave Resorufin fluor inactive, A488 fluor inactive, AID923 0.4%, A647 fluor 1e-09 and TSHR agonist 9%.

In the list so far, 2 have two or more sulfur atoms:
O=C(NC1CCCCC1NC(=O)c1cccs1)c1cccs1 (configuration not stated) was read as Resorufin fluor inactive, A488 fluor inactive, AID923 -2.7% and A647 fluor 4.6e-08.
For CCSCc1nnc(SCC(=O)Nc2cccc(SC)c2)n1C the results were Resorufin fluor inactive, A488 fluor inactive, AID923 0.0%, A647 fluor 3.9e-08 and TSHR agonist 7%.

For reference, some entries already given:
`CCN(CC)CCN1C(=O)C(=O)/C(=C(/O)c2c(C)[nH]c(C(=O)OC)c2C)C1c1ccco1` (configuration not stated) gave Resorufin fluor inactive, A488 fluor inactive and A647 fluor 3.1e-08.
For O=C(Oc1ccccc1)N1CCC[C@@]2(CCN(c3ccncc3)C2)C1 the results were Resorufin fluor inactive, A488 fluor inactive, AID923 -0.3%, A647 fluor 1.2e-09 and TSHR agonist inconclusive.

The listing continues:
`COc1ccc(NC(=O)CSc2nnc(N)s2)cc1` gave AID923 -2.5% and TSHR agonist 3%.
O=C(CSc1nnc(Cc2cccs2)n1C1CCCCC1)N1CCCc2ccccc21 was read as Resorufin fluor inactive, A488 fluor inactive, AID923 -0.6%, A647 fluor 3.4e-09 and TSHR agonist inconclusive.
Screening N#CC1=C(N)N(c2ccc(Oc3ccccc3)cc2)C(=O)C1 returned Resorufin fluor inactive, A488 fluor inactive, AID923 -0.9%, A647 fluor 2e-08 and TSHR agonist 7%[11.4 µM].
Screening CCOc1ccc(N2C(=O)CSC23CCCCC3)cc1 returned Resorufin fluor inactive, A488 fluor inactive, AID923 -0.7%, A647 fluor 1e-09 and TSHR agonist 4%.
Screening CC1(C)CC(=O)c2cnc(N3CCN(c4ccccc4)CC3)nc2C1 returned Resorufin fluor inactive, A488 fluor inactive, AID923 -2.8%, A647 fluor 4.2e-09 and TSHR agonist 5%.
CCCC1(C(=O)O)NC(c2ccccc2O)C2C(=O)N(Cc3ccccc3)C(=O)C21 (configuration not stated) was read as AID923 -0.5% and TSHR agonist inconclusive.
For CC1(C)S[C@@H]2[C@H](NC(=O)[C@H](C(=O)O)c3ccsc3)C(=O)N2[C@H]1C(=O)O the results were Resorufin fluor inactive, A488 fluor inactive, AID923 0.1%[25.7 µM] and A647 fluor 1e-09&4e-09.
Cc1ccc(S(=O)(=O)C2(C(=O)N3CCCC(C)C3)CC2)cc1 (configuration not stated) was read as Resorufin fluor inactive, A488 fluor inactive, AID923 1.3%, A647 fluor 1e-09 and TSHR agonist 3%.
Screening COC(=O)c1ccc(NC(=O)CCn2cccc2)cc1 returned AID923 0.2% and TSHR agonist -3%.
`O=C(CCCn1c(=O)oc2ccccc21)N1CCc2ccccc2C1` gave Resorufin fluor inactive, A488 fluor inactive, AID923 -1.4%, A647 fluor 5.7e-08 and TSHR agonist 15%.
CCOC(=O)c1ccc(N2C(=O)C(O)=C(C(C)=O)C2c2ccc(O)c(OC)c2)cc1 (configuration not stated) was read as Resorufin fluor inactive, A488 fluor inactive, AID923 -1.8%, A647 fluor 2.6e-08 and TSHR agonist 2%.
For Cc1cc(C)nc(/N=C2\NC(=O)CC(C(=O)O)N2CCc2c[nH]c3ccccc23)n1 (configuration not stated) the results were AID923 -0.5% and TSHR agonist -2%.
For CCSc1nnc(Cn2c(=O)sc3ccccc32)n1-c1ccc(OC)cc1 the results were AID923 -3.2% and TSHR agonist 16%.
`COCCc1nnc(NC(=O)Cc2ccccc2)s1` gave Resorufin fluor inactive, A488 fluor inactive, AID923 -2.4%, A647 fluor 1e-09 and TSHR agonist -12%.
`CCc1cccc2c3c([nH]c12)[C@@](CC)(CC(=O)O)OCC3` gave Resorufin fluor inactive, A488 fluor inactive, AID923 3.2%[25.7 µM], A647 fluor 1.4e-09 and TSHR agonist -10%[25.6 µM].
Screening COc1cc(O)c(C(=O)/C=C/c2ccccc2)c(O)c1 returned AID923 0.2%[11.5 µM] and TSHR agonist 4%[11.4 µM].
`Cc1cn(COC/C=C/c2ccccc2)c(=O)[nH]c1=O` gave Resorufin fluor inactive, A488 fluor inactive, AID923 -1.1%, A647 fluor 1e-09 and TSHR agonist -4%.
Screening [N-]=[N+]=N[C@@H]1[C@H](O)[C@H](CO)O[C@@H]1n1cnc2c(N)ncnc21 returned Resorufin fluor inactive, A488 fluor inactive, AID923 0.8%[11.5 µM], A647 fluor 1e-09 and TSHR agonist 0%[11.4 µM].
Screening COc1cc2c(cc1NC(=O)CCCN1C(=O)CCC1=O)oc1ccccc12 returned Resorufin fluor inactive, A488 fluor inactive, AID923 -1.5%, A647 fluor 1e-09 and TSHR agonist -4%.
CCC(C)NC(=O)CC(NS(=O)(=O)c1ccc(Cl)cc1)c1ccco1 (configuration not stated) was read as Resorufin fluor inactive, A488 fluor inactive, AID923 0.6%, A647 fluor 3.5e-08 and TSHR agonist 17%.
`OB(O)c1csc2ccccc12` gave AID923 -1.1% and TSHR agonist inconclusive.
For Clc1ccc(-n2ncc3c(N4CCCC4)ncnc32)cc1 the results were Resorufin fluor inactive, A488 fluor inactive and A647 fluor 1.2e-09.
Screening Cc1ccccc1CSc1nc2c(c(=O)[nH]1)CCC2 returned Resorufin fluor inactive, A488 fluor inactive, AID923 -0.4%, A647 fluor 2.6e-08 and TSHR agonist 9%.
Screening COc1ccc(N2CCN(Cc3cc(=O)oc4ccc(Cl)cc34)CC2)cc1 returned Resorufin fluor inactive, A488 fluor inactive, AID923 -1.8%, A647 fluor 2.6e-09 and TSHR agonist 9%.
Screening COCCN(CCOC)C(=O)C12CCC(C)(C(=O)C1)C2(C)C (configuration not stated) returned Resorufin fluor inactive, A488 fluor inactive and A647 fluor 1.6e-08.
`COc1ccc(-c2n[nH]c(C(F)(F)F)c2-c2cc3ccccc3o2)c(O)c1` gave Resorufin fluor inactive, A488 fluor inactive, AID923 -1.3%, A647 fluor 4.9e-09 and TSHR agonist -2%.
CCCc1cc(=O)[nH]c(SCC)n1 was read as Resorufin fluor inactive, A488 fluor inactive, AID923 1.4%, A647 fluor 1e-09 and TSHR agonist 3%.
For CCOC(=O)CNc1nc(OCC#N)nc(N2CCOCC2)n1 the results were Resorufin fluor inactive, A488 fluor inactive, AID923 1.0%, A647 fluor 2.8e-09 and TSHR agonist 0%.
O=C(CCn1c(=O)oc2ccccc21)Nc1cccc(Cl)c1 was read as AID923 0.1% and TSHR agonist 1%.
Screening CN1CCN(CCCNC(=O)c2ccc(CS(=O)(=O)c3ccc(Br)cc3)o2)CC1 returned AID923 -1.7% and TSHR agonist 7%.
`O=C(COC(=O)c1cccs1)NCC1CCCO1` (configuration not stated) gave Resorufin fluor inactive, A488 fluor inactive, AID923 -0.8%, A647 fluor 1e-09 and TSHR agonist 2%.
For CCCC1c2ccc(C)n2CCN1C(=O)Nc1ccccc1Cl (configuration not stated) the results were AID923 9.2% and TSHR agonist 13%.
For COc1ccc(OC(=O)c2cc3ccccc3o2)cc1 the results were Resorufin fluor inactive, A488 fluor inactive and A647 fluor 1e-09.
For CCN(CC)S(=O)(=O)c1ccc(-c2nnc(SCC(=O)N3c4ccccc4CC3C)o2)cc1 (configuration not stated) the results were Resorufin fluor inactive, A488 fluor inactive, AID923 -0.3% and A647 fluor 5.2e-09.
COCCN(CCOC)C(=O)c1sc2nc(-c3ccccc3)cn2c1C was read as Resorufin fluor inactive, A488 fluor inactive, AID923 0.4%, A647 fluor 1e-09 and TSHR agonist 1%.
For C=CCn1c(-c2cccc(Cl)c2)n[nH]c1=S the results were AID923 1.1% and TSHR agonist inconclusive.
Screening COc1ccc(NC(=O)C2CCCN(S(=O)(=O)c3c(C)n[nH]c3C)C2)c(OC)c1 (configuration not stated) returned Resorufin fluor inactive, A488 fluor inactive, AID923 -2.1%, A647 fluor 4.2e-09 and TSHR agonist 7%.
`CCOC(=O)C1(CCSC)NC(c2ccco2)C2C(=O)N(C)C(=O)C21` (configuration not stated) gave Resorufin fluor inactive, A488 fluor inactive, AID923 -2.0%, A647 fluor 1.1e-09 and TSHR agonist 3%.

Source: PubChem
